# ClpP mod: qHTS Assay for Activators of ClpP; purified B. subtilis ClpP, FRET peptide cleavage, 20 min; Potency, µM (highest dose often 57.5 µM), for inactives: top-dose activity change, negative = active; 340,000 compounds, 1.9% hits; AID 651965, 2013; active = well fitted falling curve with a large enough effect; inconclusive = small, poorly fitted or top-dose-only effect; inactive = no such curve, though single readings can be large or run the other way; further: potency means the concentration at half of the fitted maximal effect; the source files actives as falling curves though it sought activators and does not explain the sign; nearly all actives have a fitted effect of over 65% in size; many hits overshoot -100%
# Target sequence (P80244 whole entry, looked up): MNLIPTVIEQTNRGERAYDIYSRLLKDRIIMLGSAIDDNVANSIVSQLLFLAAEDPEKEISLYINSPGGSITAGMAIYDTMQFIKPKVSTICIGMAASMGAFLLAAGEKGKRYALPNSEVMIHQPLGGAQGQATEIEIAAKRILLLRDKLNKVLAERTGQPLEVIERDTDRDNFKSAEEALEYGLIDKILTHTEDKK
#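 ClpP 10 microg/mL final, pH 8 Tris/KCl buffer with BSA, glycerol, Tween-20; compound pinned in; FRET-FV substrate; RT 20 min; Ex320/Em430; ΔFRET vs ADEP 5.8 microM, DMSO, no enzyme.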
# gsp ag: qHTS for Agonist of gsp, the Etiologic Mutation Responsible for Fibrous Dysplasia/McCune-Albright Syndrome: qHTS; gsp mutant cells, cAMP HTRF, 30 min; control for the full effect not named in the record; Potency, µM (series often up to 76.9 µM), inactives show at the top dose activation (cAMP increase), most hits filed as activators; 340,000 compounds, 0.13% hits; AID 624287, 2012; active = well fitted activation curve with a large enough effect; inconclusive = small, poorly fitted or top-dose-only effect, or another doubt; inactive = no such curve, though single readings can be large or run the other way; cell line not stated here;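 further: phosphodiesterase inhibitor Ro 20-1724 added with compounds to block cAMP breakdown; potency means the concentration at half of the fitted maximal effect; nearly all actives have a fitted effect of over 60% in size; about a fifth of the inactives were tested at one dose only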
#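 Cells stably selected in G418 were plated at 2000/well, grown 16-24 hr, then given compounds in DMSO with the PDE inhibitor […] (300 uM solution added) for 30 min at 37C; cAMP was read by HTRF.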
# TRPML1 inh: qHTS for Inhibitors of the Human Mucolipin Transient Receptor Potential 1 (TRPML1) | 390,000 compounds, 0.02% hits | AID 624415, 2012 | activity change, negative = inhibition, % (concentration not given with the values) | Mucolipin-1 (Homo sapiens), Q9GZU1 | TRPML1-inducible cells, Ca2+ dye fluorescence, FDSS; stronger effect = lower value; inhibition of EC80 agonist-evoked calcium signal; in the data active means activity change below about -50%; inconclusive means about -30% to -50%; inactive means above about -30%;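 further: stimulus is agonist 54-4 at its EC80 concentration; on the % scale 0 is the no-effect control and ±100 the full control effect; the text of the record puts the active cut at -80%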
#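 TRPML1-DL cells, Tet-induced overnight (~16 h, 37 °C) at 1,500 cells/well, were loaded with Ca8 no-wash dye plus quencher for 45-90 min at room temperature. Compounds were pinned during FDSS kinetic reading; agonist 54-4 at EC80 (4 uM final) then added.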
# Sfp PPTase inh: qHTS Assay for Inhibitors of Bacillus subtilis Sfp phosphopantetheinyl transferase (PPTase); Potency, µM, inactives show max response, negative = inhibition, hits mostly inhibitors; 310,000 compounds, 3.5% hits; Biochemical Sfp PPTase activity, qHTS; 4'-phosphopantetheinyl transferase ffp (Bacillus subtilis), Q9F4F7; active means well fitted inhibition curve with a large enough effect; inconclusive means small, poorly fitted or top-dose-only effect, or another doubt; inactive means no such curve, though single readings can be large or run the other way;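 further: the enzyme is Sfp with the accession as filed and its product quenches rhodamine fluorescence; potency means the concentration at half of the fitted maximal effect; 0% = enzyme reaction without inhibitor and -100% = no enzyme wells; top concentration of the series not given in the record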
#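 Reaction rates are the 30-min fluorescence difference (ex 525, em 598 nm) in wells containing 15 nM Sfp, 5 uM rhodamine-CoA and 12.5 uM BHQ-2-YbbR at pH 7.6 with 10 mM MgCl2.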
# gsp antag: qHTS for Antagonists of gsp, the Etiologic Mutation Responsible for Fibrous Dysplasia/McCune-Albright Syndrome: qHTS; Potency, µM (highest dose often 76.9 µM), without a hit: at the highest dose activity change, negative = inhibition, usual class: inhibitors; gsp-mutant cells, cAMP HTRF, 30 min; control for the full effect not named in the record; 340,000 compounds, 0.4% hits; AID 624288, 2012; active = falling curve of any shape with a large fitted effect; inconclusive = falling curve, mostly with a smaller effect; inactive = flat or rising curve; cell line not stated here;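 further: intracellular cAMP measured with PDE inhibitor Ro 20-1724 present during compound exposure; potency means the concentration at half of the fitted maximal effect; on the % scale 0 is the no-effect control and ±100 the full control effect; nearly all actives have a fitted effect of over 65% in size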
#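 HTRF cAMP measurement after 30 min RT detection following 30 min, 37C compound treatment alongside […] (added as 300 uM solution) in G418-selected cells seeded at 2000/well and grown 16–24 h.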
# TRPV1 potentiator: HTS Assay for Compounds that Act as Potentiators of the Vanilloid Receptor 1 | TRPV1-expressing cells, Fluo-8 calcium influx, capsaicin EC20 potentiation; host cell line not named in the record; control for the full effect not named in the record | Transient receptor potential cation channel subfamily V member 1 (Homo sapiens), Q8NER1 | AID 540277, 2011 | potentiation, % at 8.33 µM | 320,000 compounds, 0.02% hits; active means potentiation above 80%; inconclusive means 30% to 80%; inactive means below 30%; further: 0% is about no effect
# Target sequence (Q8NER1 whole entry, looked up): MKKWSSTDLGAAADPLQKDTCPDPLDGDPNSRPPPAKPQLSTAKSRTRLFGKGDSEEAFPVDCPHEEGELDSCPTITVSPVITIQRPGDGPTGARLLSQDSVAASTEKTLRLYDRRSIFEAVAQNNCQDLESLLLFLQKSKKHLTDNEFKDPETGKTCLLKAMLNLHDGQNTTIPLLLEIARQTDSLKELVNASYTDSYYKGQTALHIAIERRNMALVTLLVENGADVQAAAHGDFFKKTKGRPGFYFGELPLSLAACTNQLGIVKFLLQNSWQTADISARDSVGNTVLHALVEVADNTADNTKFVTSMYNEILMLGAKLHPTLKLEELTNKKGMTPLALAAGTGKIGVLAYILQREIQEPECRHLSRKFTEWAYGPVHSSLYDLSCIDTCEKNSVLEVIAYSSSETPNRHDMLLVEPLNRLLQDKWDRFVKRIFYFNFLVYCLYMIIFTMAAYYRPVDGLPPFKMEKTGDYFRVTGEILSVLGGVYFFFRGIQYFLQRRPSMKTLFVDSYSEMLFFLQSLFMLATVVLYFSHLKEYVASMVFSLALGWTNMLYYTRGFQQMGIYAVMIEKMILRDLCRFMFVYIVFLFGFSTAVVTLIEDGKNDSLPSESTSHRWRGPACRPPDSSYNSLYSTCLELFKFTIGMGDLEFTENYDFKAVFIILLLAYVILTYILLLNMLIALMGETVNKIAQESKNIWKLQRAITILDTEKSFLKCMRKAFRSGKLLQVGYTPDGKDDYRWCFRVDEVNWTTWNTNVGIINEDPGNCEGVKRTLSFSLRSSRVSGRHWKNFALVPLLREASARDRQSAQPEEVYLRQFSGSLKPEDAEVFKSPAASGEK
#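 TRPV1-expressing cells were cultured overnight at 35.5C and loaded with Fluo-8 calcium dye for 40 to 90 min at room temperature. After a 10 s baseline, compound was added and calcium influx was read kinetically for 3 min (ex 480/em 520 nm).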
# Menin MLL FP FL: qHTS Assay for Inhibitors Targeting the Menin-MLL Interaction in MLL Related Leukemias: Competition With Fluorescein Labeled MLL-derived Peptide; 290,000 tested, under 10 active; FP activity change, % at 61.4 µM; Fluorescence polarization, fluorescein-MLL peptide displacement from menin; inconclusive = falling polarisation curve, or a change in total fluorescence; inactive = total fluorescence flat and polarisation flat or rising; no compound was filed as active; the % refers to the polarisation; negative = inhibition;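 further: % of control where 0% means no effect; inhibitors lower the polarisation; unlabelled MLL peptide was the positive control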
# The depositor's hits bear a star; u = inconclusive; x = no result given; [ ] = remark or other dose. Not a hit list; overall some 4.9% were active at least once.
SMILES,ClpP mod,gsp ag,TRPML1 inh,Sfp PPTase inh,gsp antag,TRPV1 potentiator,Menin MLL FP FL
Cc1c(C(=O)O)[nH]c2c1C(=O)CC(c1ccccc1)C2 (configuration not stated),-4.6%,2%,-8,7%,-4%,12,2.4
C=CCOn1c(=O)c(=O)n(OCc2ccccc2)c2ccccc21,1.5%,-9%,1,5%,7%,-2,0.7
CCO[C@@H]1OC(C(=O)O)=C[C@H](c2coc3ccccc3c2=O)[C@H]1CCCO,0.1%,x,49,6%,7%,23,-4.7
CCN1C(=O)[C@H]2[C@@H](c3ccc(SC4CCCCC4)cc3)N[C@@](CC(C)C)(C(=O)OC)[C@H]2C1=O,-2.4%,x,-6,x,-2%,11,x
COc1ccc(-n2nc(C(=O)NCC(=O)N3CCC(C)CC3)c3ccccc3c2=O)cc1Cl,x,-8%,2,8%,u,-32,0.4
NC(=O)NC(CC(=O)Nc1cccnc1)c1cccc(Br)c1 (configuration not stated),x,1%[15.4 µM],2,-50%,11%,0,x
O=C(C1CCN(S(=O)(=O)c2cnc[nH]2)CC1)N1CCN(c2ncccn2)CC1,-8.2%,-53%[inhibitor],7,5%,6%,-5,-0.3
O=C(NCCNc1ccc([N+](=O)[O-])cc1C(F)(F)F)c1ccccc1F,-2.7%,-12%,-3,1%,-27%,7,0.5
CC(=O)c1cccc(NC(=O)CC2S/C(=N/N=C3CCCCCC3)NC2=O)c1 (configuration not stated),x,4%,-8,22%,-2%,4,1.1
O=C(Nc1ccc(C(=O)N2CCN(c3ccccn3)CC2)cc1)c1ccc(Br)o1,-20%,-2%,-1,x,-18%,u,x
COc1cc(NC(=O)c2cc(S(=O)(=O)N3CCCCC3)ccc2N2CCOCC2)cc(OC)c1,x,-2%[15.4 µM],6,x,u,28,x
CC1CCCCC1NC(=O)COC(=O)c1ccc2c(=O)n3c(nc2c1)CCC3 (configuration not stated),-9.9%,u,2,x,-7%,x,x
O=C(Nc1ccc(NC(=O)C2CC2)cn1)c1ccccc1,x,-38%[inhibitor],12,3%,-5%,5,-1.1
COCCN1C=C(C(=O)OC)C(c2ccc(OC)c(OC)c2)C(C(=O)OC)=C1,u,u,-1,-3%,-1%,-11,-1.6
COCCCNC(=O)CSc1nc2c(sc(=S)n2-c2cc(Cl)ccc2OC)c(=O)[nH]1,0.8%,-22%,15,5%,-4%,0,2.6
COc1ccc(CCNC(=O)CN(CCc2ccccc2)S(C)(=O)=O)cc1,x,8%[15.4 µM],6,16%,-7%,6,0.4
Cc1ccc(COC(=O)CCc2nc3ccccc3c(=O)[nH]2)cc1,-1.4%,u,-7,27%,-4%,1,x
O=C(COC(=O)/C=C/c1cccc(C(F)(F)F)c1)Nc1cccc(S(=O)(=O)NC2=NCCC2)c1,1.5%,-29%,10,x,x,x,x
CNS(=O)(=O)c1ccc2c3c(cccc13)C(=O)N2C,-2.7%,-1%,2,23%,4%,25,-4.7
CCc1ccc(NC(=O)CN(C(=O)N2CCN(CC)CC2)S(=O)(=O)c2ccc(C)cc2)cc1,-0.9%,15%,-4,x,5%,3,x
O=c1c(/C=N/O)coc2ccc3ccccc3c12,-27%,3%,-4,11%,9%,2,1.0
CC(C)(C)OC(=O)N1C=CCC1CN1C(=O)COCC1=O (configuration not stated),x,x,1,-2%,x,x,6.8
CCn1c(N2CCN(CC(=O)Nc3cccc(C)c3C)CC2)nc2ccccc21,-1.2%,-46%,5,3%,-12%,0,2.3
CCN1CCN(S(=O)(=O)c2ccc3c4c(cccc24)C(=O)N3CC)CC1,-8.5%,-31%[inhibitor],-7,x,12%,x,x

# Complete entries, quoted from the list. Order of values: ClpP mod | gsp ag | TRPML1 inh | Sfp PPTase inh | gsp antag | TRPV1 potentiator | Menin MLL FP FL
# Cc1ccc(COC(=O)CCc2nc3ccccc3c(=O)[nH]2)cc1 reads -1.4% | u | -7 | 27% | -4% | 1 | x
# O=C(Nc1ccc(NC(=O)C2CC2)cn1)c1ccccc1 reads x | -38%[inhibitor] | 12 | 3% | -5% | 5 | -1.1
# COCCN1C=C(C(=O)OC)C(c2ccc(OC)c(OC)c2)C(C(=O)OC)=C1 reads u | u | -1 | -3% | -1% | -11 | -1.6
# CCN1CCN(S(=O)(=O)c2ccc3c4c(cccc24)C(=O)N3CC)CC1 reads -8.5% | -31%[inhibitor] | -7 | x | 12% | x | x

# Structural class, the compounds so far containing a COOH group (2)
SMILES,ClpP mod,gsp ag,TRPML1 inh,Sfp PPTase inh,gsp antag,TRPV1 potentiator,Menin MLL FP FL
Cc1c(C(=O)O)[nH]c2c1C(=O)CC(c1ccccc1)C2 (configuration not stated),-4.6%,2%,-8,7%,-4%,12,2.4
CCO[C@@H]1OC(C(=O)O)=C[C@H](c2coc3ccccc3c2=O)[C@H]1CCCO,0.1%,x,49,6%,7%,23,-4.7

# Quoted from the listing:
# O=C(COC(=O)/C=C/c1cccc(C(F)(F)F)c1)Nc1cccc(S(=O)(=O)NC2=NCCC2)c1 in gsp ag is listed with -29%
# Cc1ccc(COC(=O)CCc2nc3ccccc3c(=O)[nH]2)cc1 in Sfp PPTase inh is listed with 27%

# Next section.
SMILES,ClpP mod,gsp ag,TRPML1 inh,Sfp PPTase inh,gsp antag,TRPV1 potentiator,Menin MLL FP FL
COc1ccc(-c2cc(C)no2)cc1S(=O)(=O)N(C)c1cccc(C)c1,-2.9%,8%,23,6%,-2%,-8,-3.1
CCc1ccc(-c2cc(C(=O)NN3CCOCC3)c3ccccc3n2)cc1,-16%,-3%,13,4%,-5%[15.4 µM],6,-3.4
O=S(=O)(c1ccccc1)N1N=C(c2ccccc2)CC1c1ccccc1 (configuration not stated),x,2%[15.4 µM],4,5%,x,6,2.8
CCOC(=O)N1CCC(N(CCN(C)C)C(=S)Nc2cc(C)cc(C)c2)CC1,-3.7%,-4%,1,9%,6%,0,3.7
O=C(CSc1ccc(-c2cccnc2)nn1)Nc1ccccc1,-2.6%,11%[15.4 µM],53,19%,-8%,10,x
CC(=O)Nc1ccc2c(c1)ncn2C,-1.8%,4%,11,10%,15%,-8,-1.4
O=C(O)c1ccc2c(c1)C(=O)N(c1cccc(C(=O)/C=C/c3ccccc3)c1)C2=O,x,4%[15.4 µM],-2,u,x,10,-0.3
C=CCn1c(O)c(N=NC(=S)Nc2cccc(OC)c2)c2ccccc21,0.9%,-11%[15.4 µM],33,12%,2%,7,3.8
Cn1c(=O)oc2cc(S(=O)(=O)NCc3ccccn3)ccc21,1.4%,u,-12,-13%,13%,0,1.0
C/C(Cn1cnc([N+](=O)[O-])n1)=N\NC(=O)c1ccc(Br)cc1,-0.4%,11%[15.4 µM],-11,u,9%,-11,0.6
CC1CCN(CC(=O)N2c3ccccc3CCc3ccccc32)CC1,-0.8%,1%,28,10%,0%,11,3.0
Cc1c(C(=O)NCc2ccc3c(c2)cc(C)n3C)cccc1[N+](=O)[O-],0.0%,u,17,1%,-3%,3,-1.1
CCNC(=O)c1ccc(CSc2ccc(Cl)cc2)cc1,0.9%,-47%[inhibitor],-1,18%,51%[activator],-5,-0.6
CCOc1cc(/C=C2\N=C(SC(C)C(N)=O)N(c3ccc(OC(F)F)cc3)C2=O)ccc1O (configuration not stated),-3.3%,25%,-6,45µM*,u,10,x
CC(C)S(=O)(=O)CC(=O)c1ccc(Cl)cc1,0.0%,1%,-4,6%,u,-14,0.1
CC1CCCCC1NC(=O)CSc1nnnn1C (configuration not stated),x,3%[15.4 µM],7,x,8%,-7,x
Cc1ccc(NC(=S)NC(=O)/C=C/c2ccco2)c(O)c1,x,6%,-27,u,-10%,4,u
C=CCN(C(=O)c1csnn1)C(C(=O)NC1CCCC1)c1ccccc1F (configuration not stated),x,u,11,9%,2%,-2,1.0
CSc1cccc(NC(=O)C(=O)NCc2ccccc2)c1,x,-14%,-3,8%,7%,1,1.7
Cc1ccc2nc(NC(=O)c3ccc4ncsc4c3)sc2c1,5.2%,-10%,-12,12%,-8%,9,5.8
COCCCn1c(SCc2cc(=O)[nH]c3ccccc23)nnc1-c1ccco1,-2.3%,-36%[inhibitor],5,5%,-8%,1,1.5
O=C(NC1CCNCC1)C1CCCCC1,x,-75%[inhibitor],-1,23%,8%,-2,-6.8
O=C(Nc1ccc([N+](=O)[O-])cc1)C(=O)Nc1cccc(C(=O)O)c1,2.0%,10%,25,6%,-6%,-4,-2.1
COc1ccc(NC(=O)CCCCC(=O)Nc2ccc(OC)cc2OC)c(OC)c1,x,29%,-10,x,-8%,x,x
CC(=O)Nc1ccc(S(=O)(=O)NCCC(=O)OCC(=O)NCc2ccccc2)cc1,x,-9%[15.4 µM],10,x,6%,x,x
Cc1cc(OCc2cc(C(=O)N3CCCCCC3)no2)cc(C)c1Cl,1.1%,-42%[inhibitor],17,-22%,-28%,-7,x
c1ccc(-c2csc(-n3cccn3)n2)cc1,x,15%[15.4 µM],9,-18%,2%,-3,-0.2
O=C(Oc1ccnc2cc(Cl)ccc12)N1CCCCCC1,2.5%,1%,9,-23%,12%,25,-0.4
COc1cccc(C2NC(=O)c3ccccc3O2)c1OCc1ccccc1F (configuration not stated),0.4%,-5%[15.4 µM],11,7%,-3%,10,-6.7
Cc1ccc2cccc(Oc3ccc([N+](=O)[O-])cc3[N+](=O)[O-])c2n1,1.8%,-34%[inhibitor],-3,12%,10%,5,8.1

# High-throughput results deposited in PubChem by National Center for Advancing Translational Sciences (NCATS).
